VDR inhibitor: blocks the human vitamin D receptor. AID 504847. VDR-SRC2-3 peptide fluorescence polarization, 2 h. Potency, µM, for the others: max response, negative = inhibition, most hits filed as inhibitors. 0.93% of 400,000 active; active means well fitted inhibition curve with a large enough effect; inconclusive means small, poorly fitted or top-dose-only effect, or another doubt; inactive means no such curve, though single readings can be large or run the other way; further: series mostly up to about 120 µM
Target sequence (P11473 whole entry, looked up): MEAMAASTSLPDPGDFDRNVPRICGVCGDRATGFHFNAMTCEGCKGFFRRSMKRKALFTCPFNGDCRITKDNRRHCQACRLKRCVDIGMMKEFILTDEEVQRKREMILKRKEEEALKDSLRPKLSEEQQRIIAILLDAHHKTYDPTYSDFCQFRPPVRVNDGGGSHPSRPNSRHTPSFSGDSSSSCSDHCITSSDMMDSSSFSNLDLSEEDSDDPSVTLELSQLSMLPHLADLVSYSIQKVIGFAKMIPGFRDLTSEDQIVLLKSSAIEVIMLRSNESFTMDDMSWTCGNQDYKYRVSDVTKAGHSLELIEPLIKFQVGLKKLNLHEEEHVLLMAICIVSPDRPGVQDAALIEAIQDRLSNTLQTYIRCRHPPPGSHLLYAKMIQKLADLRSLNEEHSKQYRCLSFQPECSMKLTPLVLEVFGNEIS
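The screen uses fluorescence polarization to detect compounds that interfere with recruitment of the SRC2-3 coactivator peptide to VDR; plates are read after 2 h at room temperature.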
* marks the source's active call; other numbers are inactive results; ? = inconclusive; & = joins results of further samples. On the % scale 0 is the no-effect control and ±100 the full control effect; potency means the concentration at half of the fitted maximal effect. A portion of the library; rates above refer to the full screens.

SMILES	VDR inhibitor
Cc1ccc(C(C)C)c(OCC(=O)NNC(=O)C2CSC3(C)CCC(=O)N23)c1 (centres undefined)	0%
Cc1cccc(C)c1NC(=O)CNC(=O)c1c(-c2ccccc2)noc1C	-16%
CCCOc1ccc(C(F)(F)F)cc1NC(=O)C1CC(=O)N(Cc2ccco2)C1 (centres undefined)	-19%
COc1ccc(NC(=O)c2ncn[nH]2)cc1	7%
Cc1ccc(S(=O)(=O)NC(C(=O)Oc2ccc3c(C(F)(F)F)cc(=O)oc3c2)c2ccccc2)cc1 (centres undefined)	0%
COc1ccc(CCNC(=O)COC(=O)Cn2cnc3c2c(=O)n(C)c(=O)n3C)cc1	-14%
Cn1nnc(NC(=S)NC(=O)c2ccccc2)n1	9%
COc1ccccc1C(=O)OCC(=O)Nc1ccc(Cl)cn1	-9%
COc1ccc(-n2nc(C(=O)NCC(=O)N3CCN(c4ccccn4)CC3)c3ccccc3c2=O)cc1Cl	-28%
COc1ccc(S(=O)(=O)Nc2c(NC3CCCCC3)c3ccccc3oc2=O)cc1Cl	-22%
O=C(NCCN1CCCC1)c1ccccc1Cl	10%
CC1(O)/C=C\C=C(\CO)C2CC(C)(C)C2(O)CC1 (centres undefined)	3%
CC1CCCCN1C(=O)COc1ccc(S(=O)(=O)N2CCCC2)cc1[N+](=O)[O-] (centres undefined)	9%
COc1ccc(S(=O)(=O)N(C(=O)C(C)C)c2ccc3oc(=O)sc3c2)cc1	79µM*
O=C(Nc1ccccc1NC(=O)c1csnn1)c1csnn1	7%
Cn1c(N)c(C(=O)CNC2CCCCC2)c(=O)n(C)c1=O	-3%
COc1ccc(C2C(C(=O)Nc3cccc(C)n3)c3ccccc3C(=O)N2C)cc1OC (centres undefined)	13%
CSc1nc2sc3c(c2c(=O)[nH]1)CCC(C)C3 (centres undefined)	-2%
CCOC(=O)CC(c1ccc([N+](=O)[O-])cc1)n1c(C)ccc1C (centres undefined)	-23%
O=C(O)c1ccc(Cn2cnc3scc(-c4ccccc4)c3c2=O)cc1	1%
COc1ccc(C(=O)NC2CCN(C(=S)Nc3ccccc3C)CC2)cc1	-5%
Cc1cc(Nc2cccc(Cl)c2)nc2ccc(NC(=O)c3cccnc3)cc12	-4%
CN(C)S(=O)(=O)c1cc(C(=O)NCc2ccccc2)c(Cl)cc1Cl	-2%
CCC(C)NC(=O)/C=C/c1cccs1 (centres undefined)	-11%
CCOC(=O)N1CCN(C(=O)CNS(=O)(=O)c2c(C)cc(C)cc2C)CC1	-1%
Cc1noc(C)c1CSCC(=O)Nc1nc2ccc(F)cc2s1	-20%
Cc1ccc(C(=O)NCC(=O)OCC(=O)NCCNC(=O)COC(=O)CNC(=O)c2ccc(C)cc2)cc1	-8%
Cc1c(CCC(=O)O)c(=O)oc2c(C)c3occ(-c4ccc(Cl)cc4)c3cc12	?
COc1ccc(CN(Cc2ccc(C(=O)O)cc2)C(=S)Nc2cc(C)cc(C)c2)cc1OC	12%
O=C(CN1CCOCC1)NCCc1ccccc1	-13%
COc1ccc2c(/C=N/NS(=O)(=O)c3ccc(C)cc3)c[nH]c2c1	-6%
CC(=O)Nc1ccc(NC(=O)c2nccnc2C(=O)O)cn1	-1%
Cc1ccc(S(=O)(=O)/N=C(/c2ccccc2)N2CCOCC2)cc1	11%
COc1ccc(C(=O)OCC(=O)N2CCCCCC2)cc1S(=O)(=O)N1CCOCC1	-6%
Cc1ccc(C(=O)NNC(=O)CSc2nnc3ccccn23)cc1	-2%
CCOC(=O)CN1C(=O)S/C(=C/c2ccc(C)o2)C1=O	-23%
CCC(=O)Nc1sc(C(=O)N2CCCCC2)c(C)c1C#N	-5%
CCOC(=O)CCCNC(=O)COC(=O)c1cc2ccccc2cc1O	4%
CCCCNS(=O)(=O)c1ccc(S(=O)(=O)NCc2ccncc2)cc1	-2%
CN1N=C(C(=O)N2CCCC(C(=O)c3cccc(C(F)(F)F)c3)C2)CCC1=O (centres undefined)	-1%
O=[N+]([O-])c1ccccc1N(S(=O)(=O)c1ccccc1)S(=O)(=O)c1ccccc1	-3%
O=[N+]([O-])c1ccc(-c2nn(-c3ccccc3)cc2/C=N/n2c(-c3ccncc3)n[nH]c2=S)cc1	8%
Cc1ccc(-c2nnc(Nc3ccc(Br)cc3)c3ccccc23)cc1S(=O)(=O)N1CCOCC1	-3%
Cc1ccc(C2(C)NC(=O)N(CC(=O)Nc3ccccc3C(=O)NC3CCCC3)C2=O)cc1 (centres undefined)	4%
CCc1ccc(NC(=S)NC2CC3CCCC(C2)N3Cc2cccs2)cc1 (centres undefined)	6%
Cc1ccc(-c2noc(-c3ccccc3NC(=O)C3CC(=O)N(c4ccc(C)cc4)C3)n2)cc1 (centres undefined)	7%
Cc1[nH]nc2c1C(c1ccc(F)cc1)C1=C(CC(C)(C)CC1=O)N2 (centres undefined)	14%
Cn1cccc1Cc1nnc(SCC(=O)NCC2CCCO2)n1C (centres undefined)	-12%
O=C(COCc1cc(-c2ccc(F)cc2)on1)Nc1cccc(Cl)c1Cl	3%
CCOC(=O)C1CCCN(C(=O)CCCn2nnnc2CN2CCOCC2)C1 (centres undefined)	-1%

A portion taken from the entries so far:
SMILES	VDR inhibitor
CCc1ccc(NC(=S)NC2CC3CCCC(C2)N3Cc2cccs2)cc1 (centres undefined)	6%
Cc1ccc(-c2noc(-c3ccccc3NC(=O)C3CC(=O)N(c4ccc(C)cc4)C3)n2)cc1 (centres undefined)	7%

Further compounds:
SMILES	VDR inhibitor
COCCn1c(SCC(=O)Nc2ccccc2OC)nc2c([nH]c3ccccc32)c1=O	-1%
O=c1[nH]c(CN2CCN(c3ccc([N+](=O)[O-])cc3)CC2)nc2ccsc12	-1%
O=C(O)c1cc(S(=O)(=O)O)cc(Nc2c3ccccc3nc3ccccc23)c1O	-13%
COc1cccc(NC(=O)CSc2nnc(-c3cccc(OC)c3)o2)c1	24%
CCN(CC)CCNC(=O)CN1N=C(c2ccc(OC)cc2)CCC1=O	1%
O=C(NCCC1=CCCCC1)c1cc(S(=O)(=O)N2CCOCC2)c(Cl)cc1Cl	-14%
Cc1ccc(N2CCN(S(=O)(=O)c3ccc4oc(=O)ccc4c3)CC2)c(C)c1	-1%
CC(=O)c1cccc(NC(=O)COC(=O)c2ccc(S(C)(=O)=O)c([N+](=O)[O-])c2)c1	-23%&-19%
CCCNC(=O)NC(C(=O)OC)C12CC3CC(CC(C3)C1)C2 (centres undefined)	14%
COc1ccc(CCNC(=O)CSc2cccc3cccnc23)cc1OC	16%
N#Cc1ccccc1NC(=O)COC(=O)c1ccc2c(c1)OCO2	-14%
Cc1nc(CN(C)Cc2nc(Cc3ccccc3Cl)no2)cs1	-16%
O=C(/C=C/c1ccco1)Nc1ccc(C(=O)N2CCOCC2)cc1	-13%
N#CCCN(CCN1CCCC1)S(=O)(=O)c1ccc(-c2ccc([N+](=O)[O-])cc2)cc1	-8%
Cc1ccc(NC(=O)COC(=O)C2CC2)cc1S(=O)(=O)N1CCOCC1	7%
O=C(COc1ccc(Cl)cc1)Nc1nnc(S(=O)(=O)N2CCc3ccccc32)s1	-1%
CCOc1ccc(OCC)c(NC(=O)CCC(=O)N2CCOc3ccccc32)c1	-6%
COc1cccc(NC(=S)N/N=C2\CC3CCC2(C)C3(C)C)c1 (centres undefined)	0%
COc1cc(NC(=O)NCc2ccncc2)cc(OC)c1OC	-12%
CN(Cc1ccccc1)C(=O)c1ccc2c(c1)OCCO2	2%
O=C1CC(c2ccc(O)c(O)c2)Oc2c1ccc(O)c2O (centres undefined)	9%
O=C(O)/C=C/C(=O)NNC(=O)c1cccc(Br)c1	10%
CC(=O)c1ccc(N2CCN(C(=O)C(=O)c3c(C)[nH]c4ccccc34)CC2)cc1	-4%
O=C(CNC(=O)c1cccs1)NCCN1CCN(c2ccccc2F)CC1	-18%
COc1ccc(N2C(=O)c3cccc4cccc(c34)C2=O)nn1	5%
O=C(CN(C(=O)CNS(=O)(=O)c1ccccc1)C1CCCC1)NCc1ccco1	-9%
CC(=O)c1ccc(OCc2cc(C(=O)N3CCC(Oc4ccccc4C)CC3)no2)cc1	-7%
COc1ccc(-c2cc(C(F)(F)F)c3c(=O)n(-c4ccccc4)[nH]c3n2)cc1	11%
Cc1ccc(C(=O)Nc2cccc(C(=O)NC3CCCCC3)c2)cc1	11%
CC(C1CCN(Cc2nc(C3CC3)no2)CC1)N1CCOCC1 (centres undefined)	-11%
C=C(C)CN=c1scc(C)n1/N=C/c1ccco1	10%
C/C(N)=C(/C#N)C(=O)COC(=O)Cc1coc2cc(C)ccc12	-8%
Cc1ccc2nc(SCC(=O)Nc3cccc(F)c3)nc(=O)n2c1	-8%
CC(C)CC(C(=O)O)N(Cc1ccccc1)Cc1ccccc1 (centres undefined)	-1%
Cn1c(SCCN2CCCC2)nnc1C1CCN(S(=O)(=O)c2ccc(F)cc2)CC1	3%
COc1ccc(C(OC(=O)c2cccs2)C(=O)NCC2CCCO2)cc1 (centres undefined)	6%
O=C(O)c1cc(S(=O)(=O)N2CCCC2)ccc1Br	-5%
COc1ccc(/C=C/C(=O)NCC(=O)N/N=C/c2cccnc2)cc1	-11%
O=C1c2ccccc2C(=O)N1C1CCCCC1	-6%
O=c1c2ccccc2oc2cc(-c3ccc4[nH]ccc4c3)ccc12	8%
Cc1ccc(OCc2cc(C(=O)NCC(C)(C)N3CCOCC3)no2)cc1C	1%
O=C(c1ccc2ccccc2c1)N1CCN(c2ccccc2)CC1	-4%
CCCC(C)NC(=O)CN1C(=O)NC2(CCc3ccccc32)C1=O (centres undefined)	5%
COc1ccc(Nc2nc3ccccc3s2)cc1	-6%
NC(=O)C1(NC(=O)[C@@H]2CC3(CC(c4cccc(NC(=O)[C@@H]5CCC(=O)N5)c4)=NO3)CN2C(=O)Cc2ccc(C(F)(F)F)cc2)CC1 (some centres undefined)	2%
COc1ccc(/C=C(/NC(=O)c2ccccc2)C(=O)N2CCCC2)cc1	-4%
COc1cccc2cc(C(=O)Nc3ccccc3Cl)/c(=N/NS(=O)(=O)c3ccccc3)oc12	-20%
Cn1c(SCc2cccc(F)c2)nnc1-c1cnccn1	-2%
Cc1ccc(Nc2nnc(SCC(=O)NC(Cc3c[nH]c4ccccc34)C(=O)O)s2)cc1 (centres undefined)	-17%
CS(=O)(=O)c1ccc2nnn(OCC(=O)Nc3cccc(C#N)c3)c2c1	-1%

Further structures:
SMILES	VDR inhibitor
COc1ccc(CNC(=O)CC23CC4CC(CC(C4)C2)C3)cc1	10%
COc1cccc(OCc2nnc(SCC(=O)OC3CCCCC3)n2C)c1	-3%
Cc1ccccc1NC(=O)CSc1nnnn1C	-6%
Cc1[nH]n(-c2ccccc2)c(=O)c1C(c1cc(Cl)ccc1O)c1c(C)[nH]n(-c2ccccc2)c1=O	?
COc1ccc(CN2C3CCC2CC(NC(=O)c2cc(OC)c(OC)c(OC)c2)C3)cc1 (centres undefined)	-12%
Cc1cc(OC(=O)c2ccc(S(=O)(=O)N(C)C)cc2)c([N+](=O)[O-])c(=O)[nH]1	-14%
S=C(Nc1ccc(Cl)c(Cl)c1)N1CCOCC1	-3%
Cc1nc(Sc2nnnn2-c2ccccc2)c(C#N)c(C)c1C	-15%
O=C(CCN1C(=O)C2CC=C(Cl)CC2C1=O)NCc1ccco1 (centres undefined)	-10%
Clc1ccc(CSc2ncccn2)cc1	18%
COc1ccc(/C=N/N2C(=O)c3ccccc3C2=O)cc1	1%
c1ccc(C(Cc2nc(-c3ccccn3)no2)c2ccccc2)cc1	5%
COc1ccc(OS(=O)(=O)c2c(C)noc2C)cc1	11%
COC(=O)c1ccc(S(=O)(=O)NCCSc2nnc3c4ccccc4n(C)c3n2)cc1	18%
C=CCNC(=O)N1c2ccccc2Sc2ccccc21	5%
CN(NC(=O)c1cccc(Cl)c1)c1nc(-c2ccccc2)nnc1C(F)(F)F	21%
COc1ccccc1-c1noc(-c2ccccc2C(=O)Nc2ccccc2)n1	6%
COc1ccccc1NC(=O)CS(=O)(=O)c1cn(CC(=O)N2CCOCC2)c2ccccc12	-30%
CN(c1ccccc1N(C)S(=O)(=O)c1ccccc1)S(=O)(=O)c1ccccc1	-1%
CCN1CCN(Cc2ccc(NC(=O)c3ccc(C)c(NC(=O)c4cncc(-c5cccs5)c4)c3)cc2C(F)(F)F)CC1	-8%
O=C(COc1ccc(-n2cnnn2)cc1)Nc1ccc(F)c(F)c1F	-4%
CCC(C)Nc1nc2c(c(=O)[nH]c(=O)n2C)n1CCCc1ccccc1 (centres undefined)	5%
CCCC(c1nnnn1Cc1ccco1)N1CCN(C(=O)c2ccco2)CC1 (centres undefined)	8%
CC(=O)Nc1ccc(C2Nc3cc(C)c(C)cc3NC3=C2C(=O)CC(C)(C)C3)cc1 (centres undefined)	2%

Molecules above that have an NH in an aromatic ring (14):
SMILES	VDR inhibitor
COc1ccc(NC(=O)c2ncn[nH]2)cc1	7%
CSc1nc2sc3c(c2c(=O)[nH]1)CCC(C)C3 (centres undefined)	-2%
COc1ccc2c(/C=N/NS(=O)(=O)c3ccc(C)cc3)c[nH]c2c1	-6%
O=[N+]([O-])c1ccc(-c2nn(-c3ccccc3)cc2/C=N/n2c(-c3ccncc3)n[nH]c2=S)cc1	8%
Cc1[nH]nc2c1C(c1ccc(F)cc1)C1=C(CC(C)(C)CC1=O)N2 (centres undefined)	14%
COCCn1c(SCC(=O)Nc2ccccc2OC)nc2c([nH]c3ccccc32)c1=O	-1%
O=c1[nH]c(CN2CCN(c3ccc([N+](=O)[O-])cc3)CC2)nc2ccsc12	-1%
CC(=O)c1ccc(N2CCN(C(=O)C(=O)c3c(C)[nH]c4ccccc34)CC2)cc1	-4%
COc1ccc(-c2cc(C(F)(F)F)c3c(=O)n(-c4ccccc4)[nH]c3n2)cc1	11%
O=c1c2ccccc2oc2cc(-c3ccc4[nH]ccc4c3)ccc12	8%
Cc1ccc(Nc2nnc(SCC(=O)NC(Cc3c[nH]c4ccccc34)C(=O)O)s2)cc1 (centres undefined)	-17%
Cc1[nH]n(-c2ccccc2)c(=O)c1C(c1cc(Cl)ccc1O)c1c(C)[nH]n(-c2ccccc2)c1=O	?
Cc1cc(OC(=O)c2ccc(S(=O)(=O)N(C)C)cc2)c([N+](=O)[O-])c(=O)[nH]1	-14%
CCC(C)Nc1nc2c(c(=O)[nH]c(=O)n2C)n1CCCc1ccccc1 (centres undefined)	5%

Assay outcomes deposited in PubChem by National Center for Advancing Translational Sciences (NCATS).
